High-throughput results (PubChem)
AID504770: growth inhibition of E. coli YBA685, primary screen, V. cholerae RctB inhibitors; E. coli YBA685 rctB-dependent plasmid, OD600 growth, 3 h; active compounds read low; z-score (no concentration beside the values); 0.27% of 130,000 active;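 active = z-score under -2 on both plates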;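 also: wells of about 30 µL received 100 nL stock; score is relative to mean and SD of the test wells; the first replicate is given; strong numbers were not always called active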
CapD inh: Bacillus anthracis CapD inhibitors, primary screen, biochemical, fluorescence intensity; 0.23% of 140,000 active; purified CapD enzyme, fluorescence intensity read-out; active compounds read low; some hits fall short of the stated cut; AID 492967, 2010; z-score (no concentration beside the values); CapD gamma-glutamyltranspeptidase (Bacillus anthracis Ames Ancestor);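 active = z-score under -4 in either of two replicates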;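 also: stock transfer was 100 nL into about 40 µL; score is relative to mean and spread of the plate; one replicate is shown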
* = called active by the depositor; x = no result given; & = joins results of further samples.

cpd	SMILES	AID504770	CapD inh
1	CCOC(=O)C1=NN(C(C)=O)C2C(=O)N(Cc3ccccc3)C(=O)C12 (stereo not drawn)	-0.2	-0.46
2	O=C(CCCc1nnc2c(=O)n(-c3ccc(Cl)cc3)ccn12)N1CCN(c2ccccc2)CC1	0.3	0.34
3	N#C/C=C(\c1ccc(F)cc1)n1ccnc1	-0.55	x
4	COC(=O)c1sc(N)c(C(=O)OC)c1CSc1n[nH]c(N)n1	-0.4	x
5	CCN(CC(=O)NCc1cccs1)C(=O)c1ccc2c(c1)SC1=NS(=O)(=O)CCN12	-0.1	x
6	CC(C)(C)NC(=O)Nc1ccc(Cn2cc(C(F)(F)F)ccc2=O)cc1	x	0.93
7	NC(=O)c1ccccc1NC(=O)/C=C/c1ccccc1	-1	15
8	CN(C(=O)/C=C/C(=O)O)C1CCCCC1	0.05	x
9	O=C(Nc1cccc(C(F)(F)F)c1)N1CCN(c2ncc(-c3ccc(Cl)cc3)cn2)CC1	x	6.1
10	COc1ccc(OC)c(CCNC(=O)CCc2nnc3ccc(N4CCN(C)CC4)nn23)c1	-0.75	1
11	COc1ccc(N2C(=O)CC(N3CCSCC3)C2=O)cc1 (stereo not drawn)	-0.8	-0.34
12	Cc1c(C)c(C)c(CSC2=NCC(C)N2)c(C)c1C (stereo not drawn)	-0.2	0.39

As entered above:
CapD inh, compound 6 : 0.93
CapD inh, compound 12 : 0.39

Next part:
cpd	SMILES	AID504770	CapD inh
13	Cn1c(SCCCCN2C(=O)c3ccccc3C2=O)nnc1-c1ccccc1	0.3	x
14	O=C1C=CC(=O)N1c1ccc(Cl)cc1Br	x	0.31
15	CC(C)(CNC(=O)c1n[nH]c2ccccc12)N1CCCCC1	1.7	x
16	Brc1cnc(N2CCCCC2)nc1N1CCOCC1	-0.8	80
17	O=C(CSc1n[nH]c(=O)n1-c1cccnc1)c1cc(-c2ccccc2)no1	-0.25	0.28
18	CCOc1ccccc1C(=O)NCc1n[nH]c(=O)c2ccccc12	-1.1	x
19	C=CCSc1nc(N)c2c(C)c(C(=O)O)sc2n1	-0.55	x
20	FC(F)(F)c1nc2cc(Cl)c(Cl)cc2nc1Oc1ccccc1	x	-0.44
21	CC1=C(C(=O)Nc2ccccn2)C(c2ccc(C)cc2)C2=C(CC(C)CC2=O)N1 (stereo not drawn)	-0.95	x
22	Cc1nc(N2CCCC2)[nH]c(=O)c1Cc1c(F)cccc1Cl	-0.2	0.14
23	O=C(Nc1cccc(NC(=S)NC(=O)c2ccco2)c1)c1ccccc1	2	-0.1
24	O=C(Nc1ccc(F)cc1)C1COc2ccccc2O1 (stereo not drawn)	x	-0.16

cpd	SMILES	AID504770	CapD inh
25	N#Cc1c2c(c(Nc3ccccc3)n3c1nc1ccccc13)CCC2	-0.7	2.1
26	Cn1sc(=O)c2ccccc21	-1.1	-1.3
27	O=C1CNC(=O)N1c1ccccc1	1	x
28	Fc1ccc(CNCc2ccccn2)cc1	-0.25	-0.13
29	COc1ccc(OC)c(C(=O)c2ccc(N)cc2)c1	x	-3
30	NC(=O)c1ccc(OCC(=O)c2ccc3c(c2)OCCO3)cc1	0.15	x
31	O=C(NC1CCCCC1)c1cccs1	0.45	x
32	Cc1ccc(NC(=S)Nc2ccc3nc(-c4ccco4)c(-c4ccco4)nc3c2)cc1	1.4	-2.3
33	Cc1ccc(-c2nc3ncccc3o2)cc1NC(=O)CC(C)C	-1.5	3.7
34	C[N+]1(CCOCC2CCC[N+]3(C)CCCCC23)CCCCC1 (stereo not drawn)	1	-0.52
35	COc1ccc(/C=c2\sc3n(c2=O)NC2(c4ccccc4)N(C)C(=O)N(C)C2(c2ccccc2)N=3)cc1 (stereo not drawn)	x	-1.3
36	NCC(O)CN1CCN(Cc2ccccc2)CC1 (stereo not drawn)	-0.65	x

cpd	SMILES	AID504770	CapD inh
37	CCCC(=O)C1C(=O)CC(C)(C)C(c2cc(C)no2)C1=O (stereo not drawn)	0.25	x
38	Cc1nc2ccc(C(=O)O)cc2s1	0.15	1.7
39	CCOc1ccc(OCC)c(N2C(=O)NC(=O)/C(=C\C=C\c3ccco3)C2=O)c1	x	-1.9
40	Cc1c(N=Cc2ccc(O)cc2)c(=O)n(-c2ccccc2)n1C	x	-1.2
41	O=C(c1cccnc1Cl)n1cc(-c2ncc(C(F)(F)F)cc2Cl)cn1	x	-0.5
42	CCCCN(C)Cc1c(O)ccc2c(=O)c(-c3ccccc3OC)c(C(F)(F)F)oc12	0.15	-0.06
43	CC12CCC(C(=O)Nc3cccc4cccnc34)(CC1=O)C2(C)C (stereo not drawn)	-0.45	0.11
44	CCCNS(=O)(=O)c1ccc(N2CCCCS2(=O)=O)cc1	0.25	0.27
45	COC(=O)c1ccc(-c2nc(NC(C)=O)c3c(=O)oc4ccccc4c3n2)cc1	-0.5	0.35
46	CCN(CC)c1ccc2c(c1)OC(=O)N(c1ccc(Cl)c(Cl)c1)P2(=O)N1CCOCC1 (stereo not drawn)	-0.55	x
47	NC(=O)c1ccccc1OCCOc1ccccc1C(N)=O	x	0.72
48	CCOC(=O)Nc1ccc2c(Cn3nnc(-c4ccc(Cl)cc4)n3)cc(=O)oc2c1	0.75	x

2 of the compounds above, with two lines to a compound.
Every second line gives: AID504770 | CapD inh
43	CC12CCC(C(=O)Nc3cccc4cccnc34)(CC1=O)C2(C)C (stereo not drawn)
    -0.45 | 0.11
41	O=C(c1cccnc1Cl)n1cc(-c2ncc(C(F)(F)F)cc2Cl)cn1
    x | -0.5

Later entries:
cpd	SMILES	AID504770	CapD inh
49	O=C(NCc1ccco1)c1ccc2c(=O)n(Cc3ccco3)c(SCc3ccc([N+](=O)[O-])cc3)nc2c1	x	0.21
50	O=C(NCCc1ccccc1)c1ccc(-n2cc(-c3nc4ccccc4o3)cn2)cc1	x	-0.11
51	CN(C1CCCCC1)S(=O)(=O)c1cccc(C(=O)Nc2ccc3c(c2)OCCO3)c1	2.1	x
52	Clc1cccc(CN2CN(Cc3ccccc3)c3nc4ccccc4n3C2)c1	0.35	x
53	CC(C)c1ccccc1Oc1coc2cc(OCC(=O)NC3CCCCC3)ccc2c1=O	-0.5	-0.69
54	NC(=O)CN1C(=O)CC(c2ccccc2)=Nc2ccccc21	-0.2	-0.89
55	CCN1C(=O)C2C(c3ccco3)NC(C(=O)OC)(c3ccccc3)C2C1=O (stereo not drawn)	-0.4	x
56	COc1ccc(C(=O)Nc2cc(C(=O)N3CCc4ccccc4C3)ccc2N2CC3CC(C2)c2cccc(=O)n2C3)cc1 (stereo not drawn)	x	-0.04
57	c1csc(-c2nc(NC3CC3)c3ccccc3n2)c1	-0.05	x
58	CCCCCCc1cc2c3c(c(=O)oc2cc1OC/C=C/c1ccccc1)CCCC3	x	27
59	CN(C(=O)CSc1nc(C2CCCCC2)c(C#N)c(=O)[nH]1)c1ccccc1	-0.8	0.02
60	COc1ccc(Oc2ncccc2NC(=O)c2ccc(OC(F)(F)F)cc2)cc1	1	2.4

cpd	compound	AID504770	CapD inh
61	CC(=O)N1c2ccccc2C2(O)N=C(C)SC12 (stereo not drawn)	-0.55	5.4
62	COc1cc(C2C(C#N)=C(N)Oc3n[nH]c(-c4cccs4)c32)cc(OC)c1OC (stereo not drawn)	x	-0.54
63	O=C1N=C(N2CCOCC2)S/C1=C1\C(=O)N(Cc2ccc(Cl)cc2)c2ccccc21	-0.3	-0.065
64	O=C(c1ccc(F)cc1)N1CCc2c([nH]c3ccccc23)C1	x	0.35
65	CSC(=NC1CCCCC1)NS(=O)(=O)c1ccccc1	1.2	x
66	O=C(CCSc1ccccc1)Nc1ccccc1C(=O)O	-0.45	0.85
67	CC1(C)Cc2ccccc2C(C2=C(O)CCCC2=O)=N1	x	-0.23
68	CCN1C(=O)c2cccc3cccc1c23	-0.5	x
69	COc1ccccc1C(C)NCc1nc2ccc(Cl)cc2n1CCO (stereo not drawn)	-0.65	x
70	S=C1NC(c2ccccc2)=CC(c2ccccc2)N1 (stereo not drawn)	x	-0.44
71	COC(=O)C(Cc1cn(C(c2ccccc2)(c2ccccc2)c2ccccc2)cn1)NC(=O)OCc1ccc(SC(F)(F)F)cc1 (stereo not drawn)	x	0.22
72	O=[N+]([O-])c1cccc(C2N(c3ccc(Cl)cc3)CCN2c2ccc(Cl)cc2)c1	x	-0.12
73	COc1ccc(N2C(=O)NC(=O)/C(=C/c3ccc(OCCBr)cc3)C2=O)cc1	x	0.78
74	CCOc1ccc(CCNC(=O)c2nnc(-c3cccnc3)o2)cc1OCC	-0.4	0.25
75	N=C1N=C(N)C(Cc2ccccc2)S1 (stereo not drawn)	1.3	-0.51

Gathered by group, the entries above with bromine (three)
cpd	compound	AID504770	CapD inh
14	O=C1C=CC(=O)N1c1ccc(Cl)cc1Br	x	0.31
16	Brc1cnc(N2CCCCC2)nc1N1CCOCC1	-0.8	80
73	COc1ccc(N2C(=O)NC(=O)/C(=C/c3ccc(OCCBr)cc3)C2=O)cc1	x	0.78

Additional results:
cpd	compound	AID504770	CapD inh
76	CCCCn1c(NCc2ccccn2)nc2ccccc21	-0.75	-0.3
77	CCc1c(C)[nH]c2ccc(C(=O)O)cc12	0.05	x
78	O=C(CN1C(=O)c2ccc3c4c(ccc(c24)C1=O)CC3)OCC(=O)c1ccc([N+](=O)[O-])cc1	x	10
79	CC(=O)N(Cc1ccc2c(c1)OCO2)c1nnc(C)s1	0.15	x
80	O=C(CN1CCC(n2cnc3cc(F)ccc32)CC1)Nc1ccccc1Br	-1.2	x
81	N#CC1=C2SCC(O)(c3ccccc3)N2C(=O)CC1c1cccs1 (stereo not drawn)	-0.85	-1.5
82	CCn1c(=O)n(CC(=O)N2CC(C)CC(C)C2)c(=O)c2ccccc21 (stereo not drawn)	-1.1	0.14
83	O=C(CCn1nc(-c2ccccc2)ccc1=O)NC1CC1	1.1	-1.2
84	Cc1ccc(CNc2ccc3c(c2)nc(C)n3C)cc1	0.1	28
85	COc1ccc(NC(=O)CN2CCCn3nc(C)cc32)cc1	0.45	-0.5
86	CN(C)C(=O)c1ccccc1-c1ccccc1	-0.15	0.26
87	CCSc1nc2ccc(C)cc2cc1C#N	-0.4	x
88	COc1ccc(C2CC(c3ccc(OC)c(OC)c3)=NN2S(=O)(=O)c2ccc(C)cc2)cc1 (stereo not drawn)	x	0.3
89	CCOc1ccc(CN(C)CC(O)COc2cccc(Br)c2)cc1 (stereo not drawn)	-0.6	x
90	O=C1CC(=O)CC(c2cccc(Cl)c2)C1	x	-0.64

cpd	compound	AID504770	CapD inh
91	C=CCc1c(C)nc(-c2ccc(F)c(Cl)c2)nc1OC(=O)N(C)C	-0.45	0.53
92	CCOC(=O)C1=C(C)Nc2ccccc2N=C1NC(=O)Cc1ccc(OC)cc1	-0.5	x
93	O=C(Cc1ncon1)Nc1ccc(F)cc1	x	0.45
94	CNC(=O)CSc1nnc(-c2cccc(S(=O)(=O)N3CCCC3)c2)n1-c1ccccc1	-0.25	x
95	O=S(=O)(NCc1ccc2c(c1)OCO2)c1ccc(N2CCOCC2)nc1	-0.25	3.3
96	c1ccc(CNc2ncnc3sc4c(c23)CCCC4)cc1	0.4	0.51
97	C=CCN1CCN(C(c2ccccc2)c2nnnn2CCC(C)C)CC1 (stereo not drawn)	-0.8	x
98	NC(=O)c1cccc2cccc(C(=O)O)c12	x	94
99	COc1cccc(-n2cc(C(=O)N3CCN(C4CCCCC4)CC3)c3ccccc3c2=O)c1	1.9	3.7
100	O=C1CCC/C(=N\NC(=O)CCCOc2ccc(Cl)cc2Cl)C1	1	x
101	COCCCNC(=O)CSc1nc(NCC2CCCO2)c2ccccc2n1 (stereo not drawn)	x	3.8
102	COC(CN=Cc1c(O)n(C)c(=O)n(C)c1=O)OC	-0.2	x
103	CCOc1cc(C2CC(=O)NC3=C2C(=O)C(C(=O)OC)C(C)C3)cc(Br)c1O (stereo not drawn)	0.8	-0.72
104	O=C1C2C3c4ccccc4C(c4ccccc43)C2C(=O)N1c1ccc(Cl)cc1 (stereo not drawn)	x	0.025
105	O=c1[nH]c(=O)c2nc3ccccc3nc2[nH]1	1.2	2.6&2.1

Record cards, as listed above.
Profile of CCOC(=O)C1=C(C)Nc2ccccc2N=C1NC(=O)Cc1ccc(OC)cc1 = AID504770 = -0.5; CapD inh = x
Profile of CCN1C(=O)c2cccc3cccc1c23 = AID504770 = -0.5; CapD inh = x
Profile of CCCCN(C)Cc1c(O)ccc2c(=O)c(-c3ccccc3OC)c(C(F)(F)F)oc12 = AID504770 = 0.15; CapD inh = -0.06

Next part.
cpd	compound	AID504770	CapD inh
106	COc1cc(OC)c(OC)cc1Br	x	0.13
107	CCOc1ccc(NC(=O)C2CCCN(S(=O)(=O)c3c(C)[nH]c(=O)[nH]c3=O)C2)cc1 (stereo not drawn)	-0.15	-0.2
108	O=C(CCN1C(=O)NC2(CCCC2)C1=O)Nc1nc(-c2ccccc2)cs1	0.15	x
109	CCn1c(C(C)NC=O)nc2ccccc21 (stereo not drawn)	0.25	0.54
110	CN(C)CCOC(=O)c1ccc2[nH]c3c(c2c1)CSCC3	1.2	39
111	CN1CCN(S(=O)(=O)c2cccc3cccnc23)CC1	-0.05	0.16
112	Cc1ccc(/C=C(\C#N)C(=O)NC2CCCCCC2)o1	2.1	x
113	COc1ccc(CCN(/C=C2/Sc3ccccc3C2=O)C(C)=O)cc1OC	x	-0.33
114	O=C1CCCN1c1ccc(S(=O)(=O)Nc2ccc(Cc3ccncc3)cc2)cc1	-0.05	-0.07
115	O=c1sc(Nc2ccccc2)nc2ccccc12	-0.15	x
116	Cc1ccc(N2NC(=O)/C(=C/C=C/c3ccco3)C2=O)cc1C	1.2	0.41
117	CC1(C)c2ssc(=S)c2-c2ccccc2N1C(=O)CSc1nc2ccccc2o1	x	-0.24
118	CCOC(=O)C1=C(C)OC(N)=C(C#N)C1c1cccnc1 (stereo not drawn)	-0.85	-0.43
119	Cc1cc(C(=O)Cn2nnc(-c3cccc(F)c3)n2)c(C)n1C1CCS(=O)(=O)C1 (stereo not drawn)	-1.2	x
120	COC(=O)CC(c1ccc(O)cc1)N1Cc2ccccc2C1=O (stereo not drawn)	-0.7	-0.4

Not all compounds are listed; count on the stated rates, not on these rows.
